Compound activity (PubChem BioAssay)
ALR inh = inhibitors of human ALR sulfhydryl oxidase, primary screen, biochemical, H2O2 detection, HRP-luminol luminescence, single point; AID 485317, 2010; purified ALR, DTT oxidation; inhibition, % (concentration not given with the values); FAD-linked sulfhydryl oxidase ALR (Homo sapiens), P55789; hit rate 3.8% among 290,000;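 active = mean and each replicate at 75% or more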;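 note: stock transfer was 7.5 nL into about 7.5 µL; 0% = neutral wells and 100% = wells with inactivated enzyme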
Target sequence (P55789 whole entry, looked up): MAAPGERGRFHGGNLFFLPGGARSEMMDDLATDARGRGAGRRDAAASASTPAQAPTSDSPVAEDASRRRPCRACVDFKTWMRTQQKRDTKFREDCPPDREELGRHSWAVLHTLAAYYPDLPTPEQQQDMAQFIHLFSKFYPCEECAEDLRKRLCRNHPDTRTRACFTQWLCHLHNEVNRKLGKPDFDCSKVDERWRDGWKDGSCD
HNF4A DNA FP = change in binding of human HNF4A to DNA, primary screen, biochemical, fluorescence polarization, FITC-DNA | activity change, % at 10 µM | hit rate 0.3% among 360,000 | 1 h | Hepatocyte nuclear factor 4-alpha (Homo sapiens), P41235; in the data active = activity change above about 30%, passing the limit was not always enough;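 note: controls were the assay level and a saturating level of protein; the project sought stronger binding though the title names inhibitors; some compounds called inactive have numbers as strong as hits; positive values seem to mean higher polarization but the record does not say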
Target sequence (P41235 whole entry, looked up): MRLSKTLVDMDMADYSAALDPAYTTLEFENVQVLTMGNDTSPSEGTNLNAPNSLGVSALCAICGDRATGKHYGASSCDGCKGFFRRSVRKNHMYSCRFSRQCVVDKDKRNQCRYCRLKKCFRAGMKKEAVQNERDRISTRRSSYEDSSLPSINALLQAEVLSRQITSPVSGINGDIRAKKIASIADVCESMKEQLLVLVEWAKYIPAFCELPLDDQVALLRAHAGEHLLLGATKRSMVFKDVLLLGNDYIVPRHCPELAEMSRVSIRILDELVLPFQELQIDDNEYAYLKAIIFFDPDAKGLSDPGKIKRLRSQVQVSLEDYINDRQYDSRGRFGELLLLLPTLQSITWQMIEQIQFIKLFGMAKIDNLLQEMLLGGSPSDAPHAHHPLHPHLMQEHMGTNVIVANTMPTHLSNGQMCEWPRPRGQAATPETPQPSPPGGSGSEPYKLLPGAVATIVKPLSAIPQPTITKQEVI
Calb FLC = C. albicans growth inhibition with fluconazole, primary screen, CaCi-2 strain, Alamar Blue fluorescence. AID 1979, 2009. hit rate 0.57% among 300,000. C. albicans CaCi-2 (fluconazole-resistant clinical isolate) + fluconazole, 48 h. growth inhibition, % (no concentration beside the values);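 active = most replicates above 75%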;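 note: all wells also contain fluconazole at 8 µg/ml as a sub-toxic cotreatment; 0% = median of DMSO wells and 100% = median of geldanamycin control wells; wells of about 8 µL received 7.5 nL stock; the first replicate is given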
Beta2AR agonist = beta2AR agonists driving receptor internalization, primary screen, cell-based, FAP fluorogen, flow cytometry | response, % (test concentration not listed) | AID 504454, 2011 | Am2.2-beta2AR cells; reference of the scale not given here | hit rate 0.43% among 340,000;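 active = response above a set limit, near 3 SD of response in nonfluorescent compounds, cut at about 42% in these data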;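 note: stock transfer was 100 nL into about 11 µL; a reference agonist was the positive control; negative values mostly stem from fluorescent compounds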
Target sequence (P07550 whole entry, looked up): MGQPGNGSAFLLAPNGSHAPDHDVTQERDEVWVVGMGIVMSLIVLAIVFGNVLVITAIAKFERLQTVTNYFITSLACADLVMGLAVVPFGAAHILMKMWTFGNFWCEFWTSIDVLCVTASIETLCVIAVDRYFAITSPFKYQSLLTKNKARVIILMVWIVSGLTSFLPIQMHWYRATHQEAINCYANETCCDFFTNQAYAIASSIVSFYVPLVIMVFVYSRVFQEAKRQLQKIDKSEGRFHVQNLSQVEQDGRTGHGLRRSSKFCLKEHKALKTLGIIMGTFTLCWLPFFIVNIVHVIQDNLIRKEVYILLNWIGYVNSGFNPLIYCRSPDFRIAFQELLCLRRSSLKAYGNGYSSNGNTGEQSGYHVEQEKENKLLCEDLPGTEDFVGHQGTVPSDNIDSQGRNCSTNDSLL
LANA-H2A inh = blockers of LANA interaction with H2A/H2B – biochemical, FP readout, HTS, primary screen; Protein LANA1 (Human herpesvirus 8 type P (isolate GK18)), Q9QR71; AID 2629, 2010; cell-free LANA-H2A/H2B peptide, fluorescence polarization; inhibition, % (no concentration beside the values); hit rate 0.6% among 320,000; in the data active = inhibition mostly above about 10%, no sharp cut-off; inactive = mostly below about 6.7%;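 note: stock transfer was 7.5 nL into about 10 µL; 0% = median of vehicle wells and 100% = median of positive control wells; one replicate is shown; the record names a cut of 25% in any replicate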
Vif TR-FRET = inhibitors of Vif binding to APOBEC3G peptide, primary screen, biochemical, TR-FRET, GST-Vif 1-94, biotin-A3G peptide, dose response retest (AID 1117319); Virion infectivity factor (Human immunodeficiency virus type 1 group M subtype B (isolate …; TR-FRET GST-Vif / biotin-A3G peptide binding; higher % means a stronger effect; test concentration not given here; strong numbers were not always called active; one-dose inhibition, %; IC50 in µM for titrated hits; hit rate 0.57% among 260,000;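 active = above the screen mean plus three standard deviations and confirmed in dose response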;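 note: Vif residues 1-94 fused to GST binding biotinylated APOBEC3G peptide 110-148; 0% = full assay without inhibitor and 100% = GST in place of GST-Vif; retest series ran down from 100 µM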
RanGTP-Impb inh = inhibitors of RanGTP-importin-beta interaction, primary screen, biochemical, FRET, CFP-Ran, YFP-importin-beta, homogeneous; Ran GTPase (GTP-bound) - importin-beta complex; cell-free CFP-Ran/YFP-importin-beta FRET ratio; inhibition, % (test concentration not listed); hit rate 1.1% among 300,000; AID 2216, 2009;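 active = most replicates above 15%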;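 note: 0% = DMSO wells and 100% = Ran loaded with GDP instead of GTP; wells of about 40 µL received 100 nL stock; the first replicate is given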
Numbers without * were called inactive.

What do the screens show for `CN(C)C(=O)c1cc([N+](=O)[O-])ccc1O`?
ALR inh: -7; HNF4A DNA FP: -3.6; Calb FLC: 56; Beta2AR agonist: -6; LANA-H2A inh: -0.1; Vif TR-FRET: 1%; RanGTP-Impb inh: 0.0

How did Cc1ncoc1C(=O)N1CCCC(N2CCN(c3cccc(C(F)(F)F)c3)CC2)C1 (centres undefined) do in these assays?
ALR inh: -16; HNF4A DNA FP: 2.9; Calb FLC: 1; Beta2AR agonist: -2; LANA-H2A inh: 1.1; Vif TR-FRET: -2%; RanGTP-Impb inh: -3.1

How did COc1ccc(N=C2SC(C(N)=O)CC(=O)N2Cc2ccc3c(c2)OCO3)cc1 (centres undefined) do in these assays?
ALR inh: -12; HNF4A DNA FP: 11; Calb FLC: -1; Beta2AR agonist: -2; LANA-H2A inh: -1.7; Vif TR-FRET: 22%; RanGTP-Impb inh: 2.1

How did CNC(=O)c1ccccc1NC(=O)C1CC(=O)N(C(C)C)C1 (centres undefined) do in these assays?
HNF4A DNA FP: 3.4; Calb FLC: -1; Beta2AR agonist: -1; LANA-H2A inh: 4.3; RanGTP-Impb inh: -1.6

How did CCCC(=O)Nc1ccc(C(=O)COC(=O)c2cc(C)oc2C)cc1 do in these assays?
ALR inh: -5; HNF4A DNA FP: 1.6; Beta2AR agonist: 9; LANA-H2A inh: 1.9

Results for CSc1ccc(NC(=O)CC(C)=O)cc1 ?
HNF4A DNA FP: -0.3; Calb FLC: -9; Beta2AR agonist: 5; LANA-H2A inh: 4.2; Vif TR-FRET: -1%; RanGTP-Impb inh: 11

How did Cc1cc(NC(=O)CSc2c3c(nc4ccccc24)CCC3)no1 do in these assays?
ALR inh: 98*; HNF4A DNA FP: 4.8; Calb FLC: -4; Beta2AR agonist: -1; LANA-H2A inh: 0.6; Vif TR-FRET: 15%; RanGTP-Impb inh: 4.7

How did Cc1c(C)c(C)c(S(=O)(=O)NCCC(=O)N2CCN(Cc3ccc(C#N)cc3)CC2)c(C)c1C do in these assays?
ALR inh: -2; HNF4A DNA FP: 0.6; Beta2AR agonist: -4; LANA-H2A inh: inactive; Vif TR-FRET: -20%

What do the screens show for `CCOc1cc(C#N)c(NC(=O)Cn2nnc3ccccc32)cc1OCC`?
ALR inh: -11; HNF4A DNA FP: 34*; Calb FLC: -3; Beta2AR agonist: 1; LANA-H2A inh: -4.5; Vif TR-FRET: 9%; RanGTP-Impb inh: -1.6

What do the screens show for `COC(=O)CNC(=O)C1CCN(S(=O)(=O)c2cnc[nH]2)CC1`?
ALR inh: -12; HNF4A DNA FP: 1.5; Calb FLC: -1; Beta2AR agonist: 0; LANA-H2A inh: -3.5; Vif TR-FRET: -5%; RanGTP-Impb inh: -3.3

How did CC1(C)OC(=O)C(=NNc2ccccc2C(=O)O)C(=O)O1 do in these assays?
ALR inh: -1; HNF4A DNA FP: -0.9; Calb FLC: 1; Beta2AR agonist: 2; LANA-H2A inh: 0.1; Vif TR-FRET: 0%; RanGTP-Impb inh: 3.1

Results for O=C(Cn1nc(-c2cccc(Cl)c2)ccc1=O)Nc1cccnc1 ?
ALR inh: -4; HNF4A DNA FP: 5.4; Calb FLC: -3; Beta2AR agonist: -4; LANA-H2A inh: -0.9; Vif TR-FRET: -7%; RanGTP-Impb inh: -2.9

Of the compounds above, 5 have sulfur:
How did COc1ccc(N=C2SC(C(N)=O)CC(=O)N2Cc2ccc3c(c2)OCO3)cc1 (centres undefined) do in these assays?
ALR inh: -12; HNF4A DNA FP: 11; Calb FLC: -1; Beta2AR agonist: -2; LANA-H2A inh: -1.7; Vif TR-FRET: 22%; RanGTP-Impb inh: 2.1

Results for CSc1ccc(NC(=O)CC(C)=O)cc1 ?
HNF4A DNA FP: -0.3; Calb FLC: -9; Beta2AR agonist: 5; LANA-H2A inh: 4.2; Vif TR-FRET: -1%; RanGTP-Impb inh: 11

How did Cc1cc(NC(=O)CSc2c3c(nc4ccccc24)CCC3)no1 do in these assays?
ALR inh: 98*; HNF4A DNA FP: 4.8; Calb FLC: -4; Beta2AR agonist: -1; LANA-H2A inh: 0.6; Vif TR-FRET: 15%; RanGTP-Impb inh: 4.7

How did Cc1c(C)c(C)c(S(=O)(=O)NCCC(=O)N2CCN(Cc3ccc(C#N)cc3)CC2)c(C)c1C do in these assays?
ALR inh: -2; HNF4A DNA FP: 0.6; Beta2AR agonist: -4; LANA-H2A inh: inactive; Vif TR-FRET: -20%

What do the screens show for `COC(=O)CNC(=O)C1CCN(S(=O)(=O)c2cnc[nH]2)CC1`?
ALR inh: -12; HNF4A DNA FP: 1.5; Calb FLC: -1; Beta2AR agonist: 0; LANA-H2A inh: -3.5; Vif TR-FRET: -5%; RanGTP-Impb inh: -3.3

Additional compounds.
How did CN(CC(=O)Nc1ccccc1Cl)C(=O)Cn1cnc2ccccc2c1=O do in these assays?
HNF4A DNA FP: -2.0; Beta2AR agonist: -2; Vif TR-FRET: -3%

How did COC(=O)NNC(=O)C(c1ccccc1)c1ccccc1 do in these assays?
HNF4A DNA FP: 4.0; Calb FLC: 7; Beta2AR agonist: 4; LANA-H2A inh: 3.9; RanGTP-Impb inh: -1.5

Results for COc1ccccc1-n1c(C)nc2cc(C(=O)NCCN3CCOCC3)ccc21 ?
ALR inh: -1; HNF4A DNA FP: 3.4; Calb FLC: -9; Beta2AR agonist: 9; LANA-H2A inh: -1.0; RanGTP-Impb inh: 1.0

Results for CCOC(=O)c1c(C)n(C)c2cc(OCCN(CC)CC)ccc12 ?
ALR inh: -4; HNF4A DNA FP: -3.4; Calb FLC: -3; Beta2AR agonist: 5; LANA-H2A inh: 7.2; Vif TR-FRET: 18%; RanGTP-Impb inh: -1.1

How did Cc1nnc2c(NC3CCCC3)nc3ccccc3n12 do in these assays?
ALR inh: -2; HNF4A DNA FP: -1.3; Calb FLC: 13; Beta2AR agonist: -19; LANA-H2A inh: 2.8; RanGTP-Impb inh: -3.8

Results for Cc1cccc(Nc2ccc([N+](=O)[O-])cn2)c1 ?
ALR inh: 0; HNF4A DNA FP: 0.1; Calb FLC: 2; Beta2AR agonist: 3; LANA-H2A inh: 7.8; RanGTP-Impb inh: 1.5

Results for CCOC(=O)C1CCN(C(C)=C2C(=O)c3ccccc3C2=O)CC1 ?
ALR inh: -8; HNF4A DNA FP: 4.3; Calb FLC: 2; Beta2AR agonist: -5; LANA-H2A inh: -1.2; Vif TR-FRET: 1%; RanGTP-Impb inh: 0.0

What do the screens show for `CCC(=O)Nc1ccc2c(c1)ncn2C`?
ALR inh: -16; HNF4A DNA FP: -4.8; Calb FLC: -9; Beta2AR agonist: -1; LANA-H2A inh: 20; Vif TR-FRET: -1%; RanGTP-Impb inh: -2.1

Results for O=C(Cn1ccc2ccccc2c1=O)N1CCN(c2cccc(Cl)c2)CC1 ?
HNF4A DNA FP: 3.7; Calb FLC: 1; Beta2AR agonist: 5; LANA-H2A inh: 2.3; Vif TR-FRET: -5%; RanGTP-Impb inh: 6.9

What do the screens show for `Cc1ccc(OCCC(=O)OCC(=O)N2CC(=O)Nc3ccccc32)cc1`?
ALR inh: -10; HNF4A DNA FP: 0.2; Beta2AR agonist: 8; LANA-H2A inh: 3.3; Vif TR-FRET: 1%

Results for Cc1nnc(NC(=O)c2ccc(S(=O)(=O)N3CCOCC3)cc2)s1 ?
ALR inh: -1; HNF4A DNA FP: -1.0; Calb FLC: -2; Beta2AR agonist: 0; LANA-H2A inh: 4.3; Vif TR-FRET: -4%; RanGTP-Impb inh: -0.4

Results for CC(=O)NC1Sc2ccccc2N=C1c1ccccc1 (centres undefined) ?
ALR inh: 67; HNF4A DNA FP: 0.1; Calb FLC: -11; Beta2AR agonist: 7; LANA-H2A inh: 4.6; Vif TR-FRET: 15%; RanGTP-Impb inh: 5.0

Results for Cc1cc(C)cc(NC(=O)CSc2nncn2-c2ccccn2)c1 ?
ALR inh: -4; HNF4A DNA FP: 0.6; Calb FLC: -3; Beta2AR agonist: -24; LANA-H2A inh: 1.1; RanGTP-Impb inh: 0.5

How did O=C(c1cccc(Br)c1)N1CCN(C2=NS(=O)(=O)c3ccccc32)CC1 do in these assays?
ALR inh: -12; HNF4A DNA FP: 0.2; Calb FLC: -3; Beta2AR agonist: 9; LANA-H2A inh: -5.7; Vif TR-FRET: 9%; RanGTP-Impb inh: -0.1

What do the screens show for `COC(=O)c1ccccc1NC1c2ccccc2C(=O)N1c1cccnc1` (centres undefined)?
ALR inh: -2; HNF4A DNA FP: -2.1; Calb FLC: 4; Beta2AR agonist: -8; LANA-H2A inh: -2.4; Vif TR-FRET: -2%; RanGTP-Impb inh: -0.1

Results for Cc1cccc(CNC(=O)CCCn2nc(C)c3c(C)n(-c4ccccc4)nc3c2=O)c1 ?
ALR inh: 1; HNF4A DNA FP: 4.9; Calb FLC: 4; Beta2AR agonist: -8; LANA-H2A inh: 1.3; RanGTP-Impb inh: -0.4

What do the screens show for `O=C(O)c1ccccc1C(=O)Nc1ccccn1`?
ALR inh: -2; HNF4A DNA FP: 2.4; Calb FLC: 4; Beta2AR agonist: 2; LANA-H2A inh: 3.7; Vif TR-FRET: 0%; RanGTP-Impb inh: 6.3

How did O=C(CSc1nnc(CCCN2C(=O)c3cccc4cccc(c34)C2=O)n1-c1ccccc1)NCCCO do in these assays?
ALR inh: -4; HNF4A DNA FP: -0.1; Calb FLC: -6; Beta2AR agonist: -9; LANA-H2A inh: 0.6; Vif TR-FRET: 1%; RanGTP-Impb inh: 3.1

How did CC1(C)Cc2cccc(OCC(=O)NCCc3ccc(S(N)(=O)=O)cc3)c2O1 do in these assays?
HNF4A DNA FP: 0.2; Beta2AR agonist: -3; LANA-H2A inh: 1.3

Results for COc1ccc(C2=NOC(C(=O)NCCCN3CCOCC3)C2)cc1 (centres undefined) ?
ALR inh: -6; HNF4A DNA FP: 2.6; Calb FLC: -18; Beta2AR agonist: -4; LANA-H2A inh: -2.3; Vif TR-FRET: 3%; RanGTP-Impb inh: -1.2

Results for CC(=O)c1ccc(NC(=O)CNc2cc(S(=O)(=O)N3CCOCC3)ccc2N2CCCC2)cc1 ?
HNF4A DNA FP: 2.9; Beta2AR agonist: 0; Vif TR-FRET: -1%

Results for CCNc1nc(NCc2ccccc2)nc(Oc2ccc(=O)[nH]n2)n1 ?
ALR inh: -1; HNF4A DNA FP: 1.2; Beta2AR agonist: -8; LANA-H2A inh: 2.0; Vif TR-FRET: 12%; RanGTP-Impb inh: 1.1

What do the screens show for `O=C1N(c2ccccc2C(F)(F)F)OC1(Cc1ccccc1)c1ccccc1` (centres undefined)?
ALR inh: -7; HNF4A DNA FP: 0.7; Beta2AR agonist: 7; LANA-H2A inh: 3.7

What do the screens show for `COc1ccc(Cl)cc1NC(=O)CN(C)C(=O)c1cccc(S(=O)(=O)N2CCN(C)CC2)c1`?
ALR inh: 3; HNF4A DNA FP: 6.9; Beta2AR agonist: 2; LANA-H2A inh: 1.3

What do the screens show for `O=C(COC(=O)CCCNC(=O)c1ccc(Cl)cc1)Nc1ccc(Br)cc1`?
ALR inh: -4; HNF4A DNA FP: 1.8; Calb FLC: -3; Beta2AR agonist: -5; LANA-H2A inh: -3.0; Vif TR-FRET: 4%; RanGTP-Impb inh: 0.0

How did CN1C2C=C3C(C#N)=C(N)C(C#N)(C#N)[C@@H](c4cccs4)C3C1CC2 (some centres undefined) do in these assays?
ALR inh: -20; HNF4A DNA FP: -3.4; Calb FLC: -4; Beta2AR agonist: 5; LANA-H2A inh: -6.5; Vif TR-FRET: 19%; RanGTP-Impb inh: -4.6
